Source: PubChem
Rango release inh: qHTS Assay for Inhibitors of RanGTP induced Rango (Ran-regulated importin-beta cargo) - Importin beta complex dissociation | Biochemical FRET Rango-importin beta, RanGTP-induced dissociation | Potency, µM (doses to about 46.1 µM), for inactives: at the top dose activity change, negative = inhibition | 0.071% of 340,000 active | AID 540253, 2011; active means falling FRET ratio curve, often poorly fitted, with flat reads before Ran was added; inconclusive means other falling curves, or compound fluorescence or quenching; inactive means flat or rising ratio curve;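 also: potency is read from the fitted curve at half-maximal effect; % of control where 0% means no effect; nearly all actives have a fitted effect of over 45% in size; -100% = wells without RanGTP and RCC1; the record marks most hits as doubtful in a second field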
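Rango FRET biosensor (snurportin-1 IBB flanked by N-terminal EYFP and C-terminal CFP10) at 0.1 uM, with 0.25 uM importin beta in PBS, 1mM DTT, 0.02% Tween-20, 0.1% BSA. 0.6 uM Ran, 2mM GTP and 0.2 uM RCC1 were then added for 45 min at room temperature. Inhibition read as loss of FRET rise.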
GLA inh pH 4.5: qHTS Assay for Inhibitors of Human alpha-Galactosidase at pH 4.5. activity change, negative = inhibition, % at 105 µM. purified enzyme, 4-MU-alpha-Gal fluorescence, pH 4.5. AID 1467, 2008. Alpha-galactosidase A (Homo sapiens), P06280. 230,000 tested, under 10 active; inconclusive = small, poorly fitted or top-dose-only inhibition, or a rising curve; inactive = flat fitted curve, though single readings scatter; no compound was filed as active;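 also: 0% = full activity with enzyme and -100% = basal without enzyme; dose as in the result columns while the protocol names 77 µM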
Target sequence (P06280 whole entry, looked up): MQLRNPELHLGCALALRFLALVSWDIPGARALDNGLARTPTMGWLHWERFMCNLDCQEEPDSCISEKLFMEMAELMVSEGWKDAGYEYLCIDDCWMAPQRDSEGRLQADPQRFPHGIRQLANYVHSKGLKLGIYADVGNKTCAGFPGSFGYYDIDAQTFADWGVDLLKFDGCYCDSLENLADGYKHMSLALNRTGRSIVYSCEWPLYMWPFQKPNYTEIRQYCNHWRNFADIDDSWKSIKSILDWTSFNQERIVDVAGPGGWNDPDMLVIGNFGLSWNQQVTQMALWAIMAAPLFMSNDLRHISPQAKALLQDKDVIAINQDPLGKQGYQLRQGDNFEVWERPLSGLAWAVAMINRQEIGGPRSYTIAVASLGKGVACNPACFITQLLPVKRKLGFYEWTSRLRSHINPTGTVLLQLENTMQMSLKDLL
miR-21 FLuc: qHTS Assay for Modulators of miRNAs and/orActivators of miR-21. HeLa miR-21 FLuc reporter, luciferase, 48 h. Potency, µM (titrated, usually from 38.3 µM), without a hit: at the top dose reporter change, positive = more light. 340,000 tested, under 10 active. AID 2288, 2010; active = well fitted rising curve with a large enough effect; inconclusive = small, poorly fitted or top-dose-only effect; inactive = no such curve, though single readings can be large or run the other way;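 also: % of control where 0% means no effect; miR-21 action dims this reporter so a rising signal means less miR-21 action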
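HeLa miR-21-FLuc reporter line, endogenous miR-21; 2000 cells/well in DMEM/10% FBS; compound titration up to ~40uM final, 48 h, 37 degree Celsius; luciferase detection reagent, 15 min lysis, CCD luminescence.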
Rango-impB inh: qHTS Assay for Inhibitors of Rango (Ran-regulated importin-beta cargo) - Importin beta complex formation; Importin subunit beta-1 (Homo sapiens), Q14974; Rango CFP/YFP FRET sensor + importin beta, 45 min; Potency, µM (highest dose often 92.2 µM), for inactives: top-dose inhibition of complex formation; 0.031% of 340,000 active; AID 540263, 2011; active = rising FRET ratio curve, often small or poorly fitted; inconclusive = mostly compound fluorescence or quenching in the first reads; inactive = flat curves in all reads;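 also: potency is read from the fitted curve at half-maximal effect; 0% = DMSO wells and 100% = buffer wells lacking importin beta; nearly all actives have a fitted effect of over 15% in size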
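FRET biosensor (snurportin 1 IBB flanked by EYFP and cerulean), 50 nM, with compound 5 min, then 0.125 microM importin beta in PBS, 1 mM DTT, 0.02% Tween-20, 0.1% BSA. CFP/YFP ratio read after 45 min at room temperature; pre-read flags interference.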
The depositor's hits bear a star; ? = inconclusive; · = not tested or not shown; & = joins results of further samples; [ ] = remark or other dose. Only part of the results is shown, so the mix of outcomes need not match the whole.

A first look (2 entries):
Compound	Rango-impB inh	miR-21 FLuc	Rango release inh	GLA inh pH 4.5
O=C(O)C(Cc1c[nH]c2ccccc12)NS(=O)(=O)c1ccc(Br)cc1 (stereo not given)	-0.3%	5%	-5%	·
COc1ccc(-c2c(C#N)c(N)nc3sc(C(=O)c4ccccc4)c(N)c23)cc1	?	-8%	?	-3

This part in full, repeating the preview:
Compound	Rango-impB inh	miR-21 FLuc	Rango release inh	GLA inh pH 4.5
O=C(O)C(Cc1c[nH]c2ccccc12)NS(=O)(=O)c1ccc(Br)cc1 (stereo not given)	-0.3%	5%	-5%	·
COc1ccc(-c2c(C#N)c(N)nc3sc(C(=O)c4ccccc4)c(N)c23)cc1	?	-8%	?	-3
COc1ccc([C@H]2CC(=O)C=C(c3cc4ccccc4s3)C2)cc1	3.8%	·	16%	·
O=C(NCc1n[nH]c(=S)n1-c1ccc(F)cc1)c1ccc(S(=O)(=O)N2CCCC2)cc1	5.4%	1%	0%	8
COc1ccc(C)cc1-n1ccn(CC(=O)Nc2ccc(Br)cc2F)c(=O)c1=O	-5.0%	·	0%	·
CN(CC(=O)Nc1cccc(F)c1)C(=O)c1ccc(OCc2ccccc2)cc1	-3.2%	·	1%	·
O=C(COC(=O)/C=C/c1ccc(F)cc1)Nc1ccc(S(=O)(=O)N2CCOCC2)cc1	-4.9%	·	1%	·
O=C(Nc1ccccc1)Nc1ccc(F)cc1F	-0.8%	-27%	-11%	-4
CN(C)CCN(C(=O)c1ccc2ccccc2c1)c1nc2cc3c(cc2s1)OCCO3	-2.1%	-41%	-1%	·
O=C(N/N=C\c1ccccc1OCc1ccccc1)c1ccco1	1.6%	-10%	13%	-5
CCOc1ccc(NC(=O)CSc2nc(=O)n(Cc3ccccn3)c3c2CCC3)cc1	-1.9%	·	4%	·
CN(C)c1ccc(C(=O)N2CCCC(CCC(=O)N3CCN(c4ccccn4)CC3)C2)cc1 (stereo not given)	0.5%	9%	-7%	·
O=P(c1ccccc1)(c1ccccc1)c1cc(Br)cc(Br)c1OCCO	2.5%	-8%	-6%	·
CN(C(=O)CSc1nnc(-c2cccc(F)c2)n1N)C1CCS(=O)(=O)C1 (stereo not given)	2.2%	2%	-18%	2
O=c1[nH]c(CSc2nc3ccccc3s2)nc2cc(Cl)ccc12	·	-11%	·	-8
CCN(CC)c1ccc(/C=C(\C#N)c2ccccn2)cc1	?	18%	?	-4
CCOc1cc(/C=N/n2cnnc2)ccc1OC(=O)c1cccc([N+](=O)[O-])c1	-0.7%	-1%	-13%	0
COc1ccc(-c2nc3cc(C)ccn3c2NCc2ccc3c(c2)OCO3)cc1	2.5%	-39%	-6%	3
Cc1ccc(S(=O)(=O)NCCc2nnc(SCc3cccnc3)n2C)cc1	5.5%	13%	-12%	·
CCC(CC)NC(=O)/C=C/c1ccccc1Cl	0.0%	-54%	-7%	5
CCC(=O)c1ccc(OCC(O)CN(CCc2ccccc2)Cc2ccccc2)cc1 (stereo not given)	2.9%	22%	-8%	-1
Cc1ccc(S(=O)(=O)Nc2ccc(Oc3cccnc3)nc2)cc1	0.2%	-6%	8%	-20
c1ccc(CN2CCN(c3cnc4ccccc4n3)CC2)cc1	-2.6%	-33%	-12%	·
COC(=O)Cc1[nH]n(-c2nc3ccccc3s2)c(=O)c1C(C)=O	-1.2%	-10%	30%	9
C(=NC12CN3CN(CN(C3)C1)C2)c1ccc2c(c1)OCO2	2.0%	-5%	2%	-9
O=C(NCCS(=O)(=O)N1CCN(c2ccccc2)CC1)c1ccccc1F	-4.8%	·	19%	·
Cc1cccc(C)c1OCc1cc(C(=O)N(Cc2c(C)nn(C)c2C)C2CC2)no1	1.8%	14%	8%	·
CCN(CC)CCCNc1nc(CN2CCOCC2)nc2sc3c(c12)CCC3	-5.3%	-10%	12%	4
CC/C(=C/c1sc2ccc(C)cc2[n+]1CCCS(=O)(=O)[O-])SC	1.7%	2%	7%	-4[21.1 µM]
O=C(NCc1nnc(SCC(=O)N2CCCCCC2)o1)c1ccccc1F	-0.3%	0%	5%	·
CCOC(=O)C1=C(COC(=O)c2cccc(Cl)c2)NC(=O)NC1C (stereo not given)	-1.5%	-9%	0%	·
COc1ccc(C(C(=O)NC2CCCC2)N(CC2CCCO2)C(=O)Cc2cccs2)cc1OC (stereo not given)	1.6%	-4%	-2%	3
CC(C)CSc1nc2c(c(=O)[nH]c(=O)n2C)n1CCc1ccccc1	5.0%	-6%	-11%	6
Cc1cccc(C(=O)NC(=S)NC(C)c2ccccc2)c1 (stereo not given)	0.4%	·	0%	·
COc1cccc(OCC(O)CN2CCN(c3ccccc3)CC2)c1 (stereo not given)	1.6%&1.8%	0%&-2%	-7%&14%	2
NC(=O)c1ccsc1NC(=O)c1coc2ccccc2c1=O	0.3%	-67%	2%	7
Cc1ccc(Cl)cc1N1CCN(C(=O)c2cccc3c(=O)c(C)c(-c4ccccc4)oc23)CC1	-2.5%	-9%	9%	1
CCOc1ccc(OCC)c(S(=O)(=O)NCc2ccc3c(c2)OCO3)c1	2.4%	-1%	0%	-10
CN(C)S(=O)(=O)c1ccc(C(=O)Nc2ccc(S(=O)(=O)NC3=NCCCCC3)cc2)cc1	-3.6%	6%	-16%	-2
O=C(O)c1cccc(-n2cccc2/C=N/O)c1	-3.3%	-35%	-7%	1
CC(=O)NS(=O)(=O)c1ccc(NC(=O)c2ccc3c(c2)NC(=O)CS3)cc1	-1.9%	·	2%	·
COc1ccccc1CCCNC(=O)C1CCC(=O)N(CCCN2CCCC2=O)C1 (stereo not given)	0.8%	0%	2%	·
COC(=O)Cc1csc(NCc2ccccc2)n1	-3.7%	-7%	0%	·
COc1ccc(NC(=O)CCCC(=O)c2ccccc2)cc1OC	0.4%	0%	8%	·
O=C(OCc1cc(=O)n2ccsc2n1)c1ccccc1O	4.5%	·	-3%	·

Sorted by molecular weight (low to high): 3 of the compounds above
Compound	Rango-impB inh	miR-21 FLuc	Rango release inh	GLA inh pH 4.5
COC(=O)Cc1csc(NCc2ccccc2)n1	-3.7%	-7%	0%	·
NC(=O)c1ccsc1NC(=O)c1coc2ccccc2c1=O	0.3%	-67%	2%	7
CC(C)CSc1nc2c(c(=O)[nH]c(=O)n2C)n1CCc1ccccc1	5.0%	-6%	-11%	6

New compounds follow.
Compound	Rango-impB inh	miR-21 FLuc	Rango release inh	GLA inh pH 4.5
CCN(CC)CCCNC(=O)C(C)Sc1nc(-c2ccccc2)cc(C(F)(F)F)n1 (stereo not given)	-0.2%	4%	-7%	9
CC(=O)C1=C(C)N(Cc2ccco2)C(=O)C1(NC(=O)C1CCCCC1)C(F)(F)F (stereo not given)	-0.1%	1%	-7%	-5
CC(OC(=O)CN1C(=O)c2ccccc2C1=O)C(=O)NCc1ccccc1 (stereo not given)	-0.5%	1%	0%	·
COC(=O)c1c(NC(=O)CN2CCCC(C)C2)c2c(C)cccc2n1C (stereo not given)	0.0%	0%	14%	2
COc1ccc(CN2CCSCC2)c(C)c1C	-0.8%	3%	9%	·
CCN(Cc1ccccc1)C(c1cccs1)c1nnnn1C1CCCCC1 (stereo not given)	-0.2%	-3%	-3%	4
CC(C)NS(=O)(=O)c1ccc(OCC(=O)Nc2ccc(F)cc2)cc1	0.4%	0%	10%	4
CC(C)(C)C1CCC(OC(=O)CN2CCCCC2)CC1 (stereo not given)	-2.9%	-4%	8%	0
COc1ccc(OCC(O)Cn2c(=N)n(Cc3ccccc3)c3ccccc32)cc1 (stereo not given)	1.9%	25%	-4%	-4
O=C(Nc1cccc(C(F)(F)F)c1)c1cc(-c2ccc(F)cc2)on1	1.2%	-4%	0%	0
c1ccc(-c2noc(-c3cccs3)n2)nc1	?	12%	8%	-3
O=C1OC(CCl)CN1Cc1c(Cl)cccc1Cl (stereo not given)	2.7%	·	-7%	·
O=C(CSc1nc2ccccc2s1)NCCOc1ccc(Cl)cc1	2.6%	0%	3%	4
Cc1ccc(N2C(=O)c3ccc(C(=O)N4CCOCC4)cc3C2=O)cc1C	1.3%	-1%	2%	-21
CC1CN(C(NC(=O)C(C)(C)C)C(Cl)(Cl)Cl)CC(C)O1 (stereo not given)	0.0%	-2%	-8%	17
O=C(Nc1cc(S(=O)(=O)N2CCOCC2)ccc1O)c1ccc(NS(=O)(=O)c2ccc(Cl)s2)cc1	-0.9%	0%	1%	6
CC(C)CCC(=O)N1CCOC1=O	0.4%	-2%	16%	·
COc1ccc(S(=O)(=O)N2CCCC(C(=O)NCc3ccccn3)C2)cc1 (stereo not given)	1.0%	-5%	17%	5
Cc1cnc(C(=O)OCC(=O)NC(C)CCc2ccccc2)cn1 (stereo not given)	-1.3%	0%	1%	-1
CCOc1ncccc1C(=O)NCCc1ccc(S(N)(=O)=O)cc1	12%	1%	-3%	·
CC1(c2nnc(Cc3ccccc3)o2)CC(c2ccc([N+](=O)[O-])cc2)=NO1 (stereo not given)	0.0%	0%	14%	1
O=S(=O)(CCN1CCCCC1)CCS(=O)(=O)CCN1CCCCC1	-0.3%	·	0%	·
COC(=O)c1[nH]c2cc(OC)c(OC)cc2c1NC(=O)Oc1ccccc1	-0.7%	-8%	-11%	-2
Cc1cc(Cl)ccc1OCC(=O)OC(C)C(=O)N(C)C (stereo not given)	-4.5%	0%	-8%	-1
CCc1ccccc1C1=CC(=O)C[C@H](c2ccc(OC)cc2)C1	3.4%	·	2%	·
CC1=CC(C)(C)N(C)C(=O)N1c1ccc(Cl)cc1	-3.8%	-12%	-4%	-2
Cc1cc([N+](=O)[O-])cnc1NC(C)c1ccccc1 (stereo not given)	-0.7%	0%	-15%	-6
Cc1c(Cl)cccc1NC(=O)C(=O)NNS(=O)(=O)c1ccc(F)cc1	0.2%	-8%	-15%	·
Cc1cccc(NC(=O)c2cc(N3CCOCC3)nc3ccccc23)c1	?	-11%	-2%	-3
COCc1ccc(C(=O)N(C)CC2CCCN(CCc3ccc(OC)cc3)C2)o1 (stereo not given)	-0.9%	-63%	-1%	·
CN1CCc2nc3sc(C(=O)C45CC6CC(CC(C6)C4)C5)c(N)c3cc2C1	?	-10%	?	2
COc1ccc2cc(-c3ccccc3)ncc2c1	8.1%	-61%	2%	·
COc1cc(C)c(CN2CCN(C(C)C(=O)NC(C)c3ccccc3)CC2)cc1OC (stereo not given)	1.0%	-1%	11%	·
CC1Cc2cc(S(=O)(=O)N3CCC(C(=O)N4CCN(c5ccccc5F)CC4)CC3)ccc2N1C(=O)C1CC1 (stereo not given)	-3.6%	26%	6%	·
NC(=O)c1ccccc1NCC(=O)c1ccc(F)cc1	2.5%	-25%	-9%	·
O=C(Nc1ccccc1)N1CCN(c2ccc(F)cc2)CC1	-2.4%	-27%	4%	-5
O=C(COc1ccc(Br)cc1)c1ccc2c(c1)CCCC2	-0.2%	-21%	10%	3
Cc1cccc(NC(=O)CN(CC2CCCO2)C(=O)c2cc(S(=O)(=O)N(C)C)ccc2F)c1C (stereo not given)	6.6%	·	1%	·
Cc1ccn(CCC(=O)Nc2ccc3c(c2)OCO3)n1	0.0%	-20%	3%	·
COC(=O)c1ccc(NC(=O)C(=O)NCC2CCCO2)cc1 (stereo not given)	2.2%	-12%	-15%	0
O=[N+]([O-])c1ccc2nc(NS(=O)(=O)c3ccc(F)cc3)sc2c1	4.0%	-27%	18%	·
Cc1ccc([N+](=O)[O-])cc1-c1ccc(/C=N\n2nnnc2N)o1	-0.1%	-7%	-13%	-3
